Screening data as filed in PubChem BioAssay.
TSHR ag = qHTS Assay for Agonists of the Thyroid Stimulating Hormone Receptor; Thyrotropin receptor (Homo sapiens), P16473; HEK293-CNG-TSHR cells (CNG channel as cAMP sensor), membrane potential dye, cAMP; Potency, µM (top dose mostly 57.1 µM), for the others: at the top dose activation, usual class: activators; 0.48% of 73,000 active; AID 926, 2007; active = well fitted activation curve of enough size with the parental cells flat; inconclusive = any curve in the parental cells; inactive = parental cells flat and receptor cells flat or falling; also: potency is read from the fitted curve at half-maximal effect; % of control where 0% means no effect; weak receptor curves with flat parental cells got no call and are not listed
Target sequence (P16473 whole entry, looked up): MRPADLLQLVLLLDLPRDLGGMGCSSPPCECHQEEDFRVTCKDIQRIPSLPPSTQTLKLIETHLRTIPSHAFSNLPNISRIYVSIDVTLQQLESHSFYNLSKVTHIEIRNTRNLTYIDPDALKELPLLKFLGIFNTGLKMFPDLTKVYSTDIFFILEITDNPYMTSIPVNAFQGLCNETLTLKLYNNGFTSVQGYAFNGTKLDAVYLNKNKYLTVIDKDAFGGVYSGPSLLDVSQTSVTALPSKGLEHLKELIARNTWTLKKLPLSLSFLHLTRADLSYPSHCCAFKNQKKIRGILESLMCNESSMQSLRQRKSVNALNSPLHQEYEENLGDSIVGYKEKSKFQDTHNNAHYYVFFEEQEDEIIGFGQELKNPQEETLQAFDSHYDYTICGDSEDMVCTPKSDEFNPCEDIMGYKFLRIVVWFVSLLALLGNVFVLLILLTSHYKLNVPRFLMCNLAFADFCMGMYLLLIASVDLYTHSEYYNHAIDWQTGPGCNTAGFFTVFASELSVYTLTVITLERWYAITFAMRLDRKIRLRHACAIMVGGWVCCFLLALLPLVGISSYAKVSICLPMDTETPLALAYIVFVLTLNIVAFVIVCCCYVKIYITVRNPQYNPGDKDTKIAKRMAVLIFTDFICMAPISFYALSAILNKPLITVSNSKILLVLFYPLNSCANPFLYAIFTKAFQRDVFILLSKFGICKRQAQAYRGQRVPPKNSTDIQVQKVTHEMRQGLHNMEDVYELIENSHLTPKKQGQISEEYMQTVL
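HEK 293 cells stably expressing TSHR and a cAMP-gated CNG channel; parental CNG-only cells as counterscreen. Cells preloaded 60 min with membrane potential dye plus 100 uM RO 20-1724, then compound 30 min; fluorescence read at 590 nm.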
AID923 = qHTS Assay for Allosteric/Competitive Inhibitors of Caspase-1: Spectroscopic Profiling in AFC Spectral Region | compound fluorescence, AFC spectral region (405/520 nm); almost no hit is shown here | Potency, µM (series often up to 57.5 µM), inactives show top-dose fluorescence increase, usual class: activators | 1.1% of 75,000 active; active = well fitted activation curve with a large enough effect; inconclusive = small, poorly fitted or top-dose-only effect;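 also: potency is read from the fitted curve at half-maximal effect; 0% is about no effect; scaled to a free AFC standard on each plate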
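Compound autofluorescence profiled at 405 nm ex/520 nm em during kinetic caspase 1 run (50 nM enzyme, 5 uM Ac-WEHD-AFC, HEPES pH 7.5, 10 mM DTT). Titration up to 57 uM; baseline from regression intercept, normalized to AFC standard curve.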
A488 fluor = qHTS Assay for Spectroscopic Profiling in A488 Spectral Region; compound autofluorescence, A488 spectral region, dye equivalency; hits give high values; max dye equivalency, M; 0.1% of 59,000 active; active = above 10 nM dye equivalent; inconclusive = 1 to 10 nM; inactive = 1 nM or less; about half of its hits are not listed in these tables;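 also: highest value over a series up to 38 µM; compound alone in buffer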
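Read-out: relative fluorescence at 480/540 nm, expressed as Alexa 488 dye-equivalent concentration from a six-point A488 standard included per plate. Conditions: 100 mM Tris, pH 8.0; 15 min incubation, room temperature.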
Resorufin fluor = qHTS Assay for Spectroscopic Profiling in Resorufin Spectral Region | max dye-equivalent concentration, M | Compound fluorescence, resorufin region 547/598 nm, buffer; hits give high values | 0.04% of 59,000 active; active = above 10 nM dye equivalent; inconclusive = 1 to 10 nM; inactive = 1 nM or less; a few of its hits are not listed in these tables; also: highest value over a series up to 38 µM
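Compounds in 100 mM Tris buffer, pH 8.0, incubated 15 min at room temperature, then read with 547 nm excitation and 598 nm emission filters. Fluorescence was converted to dye-equivalent concentration using an on-plate six-point resorufin standard curve.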
A647 autofl = qHTS Assay for Spectroscopic Profiling in A647 Spectral Region; 59,000 tested, under 10 active; Compound fluorescence, A647 channel (570/671 nm), Tris buffer; max dye-equivalent concentration, M; active means above 1 µM dye equivalent; inconclusive means 0.1 to 1 µM; inactive means 0.1 µM or less;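 also: values scaled relative to a standard on each plate; highest value over a series up to 38 µM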
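Fluorescence read (570 nm ex, 671 nm em) after 15 min RT incubation of compounds in 100 mM Tris buffer, pH 8.0; values expressed as dye-equivalent concentration against a six-point A647 standard series on each plate.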
The depositor's hits bear a star; i = inactive; ? = inconclusive; / = no result given; & = joins results of further samples; [ ] = another dose, or the depositor's remark. The list is partial. The share of hits here may be higher or lower than overall.

Under each structure: TSHR ag | AID923 | A488 fluor | Resorufin fluor | A647 autofl
> COc1ccc(OCC(=O)Nc2ccc(S(=O)(=O)N3CCOCC3)cc2)cc1
→ -2.8% | 1.5% | i | i | 1e-09
> CCCNS(=O)(=O)c1ccc(OCC(=O)NCc2ccc3c(c2)OCO3)cc1
→ -1.2% | 1.0% | i | i | 8.3e-09
> C=COC(=O)CSc1nc(-c2cccs2)ccc1C#N
→ / | / | i | i | 5.98e-08
> CCOC(=O)N1CCN(C(=O)c2ccc(N(C)S(C)(=O)=O)cc2)CC1
→ 0.3% | -3.8% | i | i | 1e-09
> CC(=O)OC1=C(C#N)Cn2ccc3cccc1c32
→ / | 1.3% | i | i | 1e-09
> CCc1nnc2n1N=C(c1ccc(-c3cc(Cl)ccc3Cl)o1)CS2
→ -8.3% | 0.6% | i | i | 7.8e-09
> Cn1c(O)c(C=Nc2ccc(Cc3ccncc3)cc2)c(=O)n(C)c1=O
→ / | / | i | i | 1.29e-08
> c1ccc2sc(Cc3nnc4n3CCCCC4)nc2c1
→ -0.9%[11.4 µM] | -1.3% | i | i | 1e-09
> CCC(=O)N1c2ccccc2-c2nnc(SC)nc2OC1c1ccc(OC)c(OC)c1 (stereo not given)
→ -1.0% | 4.7% | / | / | /
> CN(Cc1cccs1)CC(O)COCc1ccco1 (stereo not given)
→ 4.5% | -1.9% | i | i | 8.3e-09
> CC(OC(=O)C1CCCO1)C(=O)NC1CCCC1 (stereo not given)
→ -0.5% | 3.4% | i | i | 1e-09
> Cc1ccc(Cl)cc1
→ -7.7% | -0.2% | / | / | /
> CN(C)c1ccc(C2N(C(=O)N3CCOCC3)CCN2S(=O)(=O)c2ccccc2)cc1 (stereo not given)
→ 3.7% | 0.7% | i | i | 2.7e-09
> CNCCCC12CCC(c3ccccc31)c1ccccc12
→ ? | 0.5% | i | i | 3e-09&1.7e-09&7.5e-09
> Cc1ccc2c(C)c(C(=O)Nc3c(C)n(C)n(-c4ccccc4)c3=O)oc2c1
→ 22.0% | -0.3% | i | i | 5e-09
> Cc1cccc2cc(COC(=O)C3CCCO3)c(=O)[nH]c12 (stereo not given)
→ -9.9% | 3.8% | i | i | 2.7e-08
> O=C(C1CCC(N2C(=O)C3CC=CCC3C2=O)CC1)N1CCCCC1 (stereo not given)
→ -0.3%[11.4 µM] | -2.0% | / | / | /
> CCOC(=O)C1=C(C)NC(=O)NC1c1ccc(OCC(=O)N2CCCCC2)cc1 (stereo not given)
→ 5.1% | -1.5% | i | i | 3.7e-09
> COCCCn1c(=S)[nH]c2ncccc2c1=O
→ 1.5% | -0.3% | i | i | 3.4e-09
> COC(=O)c1cc2c(ccn2-c2ccc(F)cc2)n1CC(=O)N1CCN(C(=O)c2ccco2)CC1
→ 2.9% | -0.8% | i | i | 2.76e-08
> Cc1csc(NC(=O)CSc2nnc(-c3ccoc3C)n2CCc2ccccc2)n1
→ ? | -1.7% | i | i | 9.6e-09
> Cc1ccc(OCCC(=O)OCC(=O)C(C)(C)C)cc1
→ 1.1% | -1.8% | i | i | 1e-09
> O=C(Cn1cnc2c(nnn2-c2ccc(F)cc2)c1=O)NCC1CCCO1 (stereo not given)
→ -2.4% | 0.2% | i | i | 1e-09
> C[C@H](C(=O)c1ccccc1)[C@@H](c1ccccc1)N1CCOCC1
→ ? | -2.0%[11.5 µM] | i | i | 1.39e-08
> CCN(CC)S(=O)(=O)c1cc(C)c(C)cc1Br
→ ? | -0.1% | i | i | 1e-09
> O=C(CSc1ncn(-c2ccccc2)n1)Nc1nc2c(s1)CCCC2
→ 16.6% | -1.3% | i | i | 3e-09
> CN(C)c1ccc(/C=C/c2ccncc2)cc1
→ 2.5% | 20.1% | i | i | 2.56e-08
> CC(C)(CNC(=O)C1CCCC1)CNC(=O)C1CCCC1
→ 5.3% | -1.2% | i | i | 3.5e-09
> COc1ccc(Cl)cc1N(CC(=O)N1CCN(Cc2ccccc2)CC1)S(C)(=O)=O
→ 2.7% | 1.1% | / | / | /
> COc1ccc(S(=O)(=O)N2CCC(C(=O)NCc3cccc(OC)c3)CC2)cc1
→ -6.7% | 0.9% | i | i | 1.39e-08
> Cc1onc(-c2ccccc2)c1C(=O)N1CCN(C(=O)c2ccco2)CC1
→ ? | 1.7% | i | i | 1e-09
> O=C(Nc1nccs1)c1ccc2nccnc2c1
→ -7.5% | 1.3% | i | i | 2.14e-08
> O=C(c1ccc2c(=O)n(Cc3ccco3)c(=S)[nH]c2c1)N1CCN(c2ccccc2)CC1
→ 5.1% | 0.2% | i | i | 1e-09
> CCOc1ccccc1C(=O)Nc1cc(Cl)ccc1O
→ ? | -1.2% | i | i | 4.03e-08
> O=C(Nc1nc2c(s1)CCCC2)Oc1ccccc1
→ 8.9% | 0.2% | i | i | 8e-09
> COC(=O)/C=C1\NCCSC1=O
→ ? | -0.3% | i | i | 2.14e-08
> Cc1cccc(OCc2nnc(SCn3nnc4ccccc4c3=O)o2)c1
→ ? | 0.1% | i | i | 1.55e-08
> CC1CCCC(C)N1C(=O)COC(=O)c1ccc2c(c1)OCO2 (stereo not given)
→ 3.3% | -2.9% | i | i | 3.6e-09
> CCc1cc2c(=O)c(-c3cscn3)coc2cc1O
→ / | / | i | i | 1e-09
> Cn1ccnc1SCc1cn2cc(Br)ccc2n1
→ ? | 1.4% | i | i | 3.5e-09
> CC1Oc2ccccc2N(CC(=O)NCc2cccs2)C1=O (stereo not given)
→ / | -0.2% | i | i | 2.9e-09
> CCOc1ncccc1C(=O)OCC(=O)c1c(N)n(C)c(=O)n(C)c1=O
→ 3.8% | 0.1% | i | i | 3.7e-09
> Cc1cc(C(=O)CSc2nc(N)cc(N)n2)c(C)n1CCc1ccc(F)cc1
→ ? | 1.3% | i | i | 1.2e-09
> N#Cc1c(N)nc2c(c1-c1ccncc1)CCCCC2
→ -1.5% | -1.1% | i | i | 1e-09
> S=C=Nc1cccc(NC(=S)NCCCCNC(=S)Nc2cccc(N=C=S)c2)c1
→ 0.5% | -0.1% | / | / | /
> Cc1cccc(N2CCN(c3cccc(C)c3)C2c2cccnc2)c1
→ ? | 1.4% | / | / | /
> O=C(Cn1nnc(-c2ccc(N3CCOCC3)cc2)n1)OC1CCCCC1
→ 16.5% | 1.1% | i | i | 1.7e-09
> CCOc1ccc(N(CC(=O)Nc2ccc(OC)cc2)S(C)(=O)=O)cc1
→ 1.0% | -0.2% | i | i | 2.3e-09
> O=C(CCN1C(=O)c2ccccc2C1=O)N1CCN(c2ccccc2)CC1
→ 10.4% | 1.6% | i | i | 5.55e-08
> CC(=O)OCC1OC(C#Cc2ccccc2Cl)C=CC1OC(C)=O (stereo not given)
→ 0.5%[11.4 µM] | 1.9%[11.5 µM] | / | / | /
> O=C(NCc1cccnc1)C1CC(=O)N(C2CCCCC2)C1 (stereo not given)
→ ? | 1.9% | i | i | 3.5e-09
> CCC(C)NS(=O)(=O)c1ccc(S(=O)(=O)Nc2cc3c(cc2C(C)=O)OCO3)cc1 (stereo not given)
→ 6.4% | 0.2% | i | i | 1.27e-08
> CCOCCCNC(=O)C(NC(=O)C1CCC(=O)N1)c1ccc(C)cc1 (stereo not given)
→ 4.0% | -1.9% | i | i | 2.02e-08
> O=C(CSc1nc(-c2ccco2)cc(C(F)(F)F)n1)N1CCCc2ccccc21
→ ? | 0.4% | i | i | 6.5e-09
> COc1cc(C)nc(Oc2ccc(=O)n(C)n2)n1
→ / | / | i | i | 4.62e-08
> COc1ccc(C2=CC(c3sccc3C)n3nnnc3N2)cc1 (stereo not given)
→ / | 16.7% | i | i | 5.5e-09
> CC(=O)N1CC=CC1(C)C(=O)NCC1CC1 (stereo not given)
→ -0.7% | 1.1% | / | / | /
> CCSc1nnc(N(CCC(=O)O)CCC(=O)O)s1
→ / | / | i | i | 1.27e-08
> Cc1c(OCc2nn[nH]n2)ccc2c(-c3ccccc3)cc(=O)oc12
→ 18.2% | -0.5% | i | i | 1e-09
> COC(=O)Nc1ccc2[nH]cc(CCNC(C)=O)c2c1
→ -1.4% | 0.0% | / | / | /

Structures listed so far containing a cyano group, in the order listed:
Under each structure: TSHR ag | AID923 | A488 fluor | Resorufin fluor | A647 autofl
> C=COC(=O)CSc1nc(-c2cccs2)ccc1C#N
→ / | / | i | i | 5.98e-08
> CC(=O)OC1=C(C#N)Cn2ccc3cccc1c32
→ / | 1.3% | i | i | 1e-09
> N#Cc1c(N)nc2c(c1-c1ccncc1)CCCCC2
→ -1.5% | -1.1% | i | i | 1e-09

Next section.
Under each structure: TSHR ag | AID923 | A488 fluor | Resorufin fluor | A647 autofl
> CNC(=O)C1(C)C=CCN1C(=O)c1ccccc1 (stereo not given)
→ 8.7% | -0.8% | / | / | /
> Nc1nc(-c2ccco2)nn1C(=O)c1cccnc1
→ 2.0% | 1.2% | i | i | 2.22e-08
> CC12C(=O)N(c3ccccc3C(=O)O)C(=O)C1C1C=CC2C1 (stereo not given)
→ -1.7% | -0.2% | i | i | 2.06e-08
> CCOC(=O)C(C)Oc1ccccc1C1NC(=O)NC(C)=C1C(=O)Nc1ccc(C)c(C)c1 (stereo not given)
→ -1.4% | -0.8% | i | i | 9.7e-09
> C=CCc1cccc(/C=N/c2ncn[nH]2)c1O
→ / | / | i | i | 6.64e-08
> OC1(C2(O)CC(c3ccccc3)ON2)CCCCC1 (stereo not given)
→ / | / | i | i | 6.08e-08
> O=C(CC1CCS(=O)(=O)C1)Nc1ccc[nH]c1=O (stereo not given)
→ 2.4% | 4.6% | i | i | 2.64e-08
> O=C(c1noc2c1CCCC2)N1CCOCC1
→ -4.1% | -0.7% | i | i | 9.1e-09
> C=CCc1ccccc1OCC(O)CNC(C)C (stereo not given)
→ / | -1.9% | i | i | 1e-09
> CC(C)(C)c1ccccc1NC(=O)c1cccnc1
→ 0.5% | -2.5% | i | i | 3.4e-09
> Cc1cc(NC(=O)Nc2cc(C)nn2-c2ccccc2)n(-c2ccccc2)n1
→ 10.6% | -1.5% | i | i | 1.12e-08
> CCC(c1nnnn1Cc1ccco1)N(CCc1ccccc1)Cc1cc2cc(C)ccc2[nH]c1=O (stereo not given)
→ ? | 20.3% | i | i | 3.31e-08
> O=C(CSc1ccc2nnc(-c3ccccn3)n2n1)NCc1ccco1
→ -8.8% | -1.1% | / | / | /
> C#CC(C)(CC)NC(=O)Cn1nnc(-c2ccc(S(C)(=O)=O)cc2)n1 (stereo not given)
→ 9.9% | -0.8% | i | i | 1.27e-08
> CNc1ccccc1-c1nc2ccccc2n(C)c1=O
→ / | / | i | i | 9.66e-08
> COc1ccccc1N1CCN(C(=O)C(F)F)CC1
→ -0.8%[11.4 µM] | -0.2% | i | i | 6.5e-09
> CC(=O)C(C)Oc1cc(C)cc2oc(=O)c(C)c(C)c12 (stereo not given)
→ 20.2% | -0.5% | i | i | 5.7e-09
> O=C(NCc1cccs1)C1CCN(S(=O)(=O)c2cccs2)CC1
→ -1.9% | 1.7% | i | i | 1e-09

Compound profiles, from the list above:
Entry for `C=CCc1ccccc1OCC(O)CNC(C)C` (stereo not given) = TSHR ag = /; AID923 = -1.9%; A488 fluor = i; Resorufin fluor = i; A647 autofl = 1e-09
Entry for `CC(=O)C(C)Oc1cc(C)cc2oc(=O)c(C)c(C)c12` (stereo not given) = TSHR ag = 20.2%; AID923 = -0.5%; A488 fluor = i; Resorufin fluor = i; A647 autofl = 5.7e-09
